Screening results: PubChem BioAssay, ICCB-Longwood Screening Facility, Harvard Medical School
HCMV UL50-53 inh: disrupts HCMV UL50-UL53 complex binding. HTRF UL50-UL53 interaction, normalized percent inhibition. inhibition, % (no concentration beside the values). 190,000 tested, 0.15% active. AID 1918969;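 active = both replicates at 50% or more, plus weaker picks with an unusually low signal ratio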;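 note: stock transfer was 100 nL into about 20 µL; 0% = negative control wells and 100% = wells with untagged competitor protein; inactives centre near -12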
GIV Gai3 FP: blocks GIV peptide binding to rat Galpha-i3; P08753; Galpha-i3/FITC-GIV peptide fluorescence polarization, 90 min; hits give low values; scaled: aluminum fluoride 0%, vehicle 100%; percent of control (FP), % (concentration not given with the values); 210,000 tested, 0.42% active; AID 1224905;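 active = replicate mean at 85% of control or lower, very high polarization wells dropped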;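 note: wells of about 15 µL received 100 nL stock; the first replicate is given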
Target sequence (P08753 whole entry, looked up): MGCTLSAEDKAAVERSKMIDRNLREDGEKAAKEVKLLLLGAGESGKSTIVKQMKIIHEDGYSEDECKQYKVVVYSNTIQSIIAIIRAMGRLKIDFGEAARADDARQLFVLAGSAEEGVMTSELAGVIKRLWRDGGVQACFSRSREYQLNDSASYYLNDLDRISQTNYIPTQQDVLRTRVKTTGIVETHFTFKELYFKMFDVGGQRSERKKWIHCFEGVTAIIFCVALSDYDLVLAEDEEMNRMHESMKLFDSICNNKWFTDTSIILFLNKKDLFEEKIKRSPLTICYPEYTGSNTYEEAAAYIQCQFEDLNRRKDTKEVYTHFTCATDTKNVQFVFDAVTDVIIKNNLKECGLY
Sa growth 42C: inhibitors of Staphylococcus aureus growth at 42 °C; 170,000 tested, 0.53% active; AID 720641; S. aureus RN4220 growth, OD600, 20 h; hits give low values; relative growth, % (concentration not given with the values);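 active = growth at 42 °C up to 50% and 20 or more points under that at 30 °C, or under 10% at both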;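 note: 300 nL library stock went into each well; scaled to the means of positive and negative controls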
Sa growth 42C second temp: also measured in Sa growth 42C; calls as there; relative growth, %; measured here: growth at 30 °C;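 optical density after 20 h as mean of two plates; 100% = untreated growth and lower means inhibition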
* = called active by the depositor; / = no result given.

No.	canonical_smiles	HCMV UL50-53 inh	GIV Gai3 FP	Sa growth 42C	Sa growth 42C second temp
1	O=c1[nH]c2cc3c(cc2c(=O)n1CCCc1nc(-c2ccccc2Cl)no1)OCO3	-3	104	/	/
2	O=c1c(Cl)c(N2CCN(c3ccccn3)CC2)cnn1-c1nc2ccccc2o1	-2	97	113	94
3	CC1CCCC(C)N1CCCNC(=O)Cn1c(=O)c2cccn2c2ccccc21 (stereo unspecified)	28	106	115	101
4	CN1C(=O)c2ccccc2Sc2ccc(NC(=O)N3CCN(c4ccccc4F)CC3)cc21	1	98	107	92
5	CCOc1ccc(NC(=O)COC)cc1	-7	103	107	85
6	Cn1c(O)c(N=NC=C2C(=O)CC(C)(C)CC2=O)c2ccccc21	-52	/	92	91
7	CCOCCOC(=O)C1=C(C)NC2=C(C(=O)CC(c3ccccc3)C2)C1c1ccc(N(CC)CC)cc1 (stereo unspecified)	-8	110	/	/
8	O=C(CC1CC(=O)Oc2ccccc21)NCc1ccccc1 (stereo unspecified)	-8	105	101	94
9	O=C(COC(=O)c1cc(NS(=O)(=O)c2cccs2)ccc1O)NC1CCCC1	-30	/	100	93
10	Cc1ccc(NC(=O)CN(C)C(=O)/C=C/c2ccco2)cc1	-38	/	81	96
11	CCC(C)C(=O)N1c2ccccc2C(N(C(=O)COc2ccccc2)c2ccccc2)CC1C (stereo unspecified)	8	106	/	/
12	CC(=O)c1ccc(NC(=O)CSc2nnc(NC(=O)NC3CCCCC3)s2)cc1	/	96	124	83
13	Cc1ccc(OCCN2CCN(c3c4c(c(C#N)c5nc6ccccc6n35)CCC4)CC2)cc1	-15	106	88	97
14	CN1C(=O)Cc2cc(S(=O)(=O)CCC(=O)Nc3ccc(OC(F)(F)F)cc3)ccc21	/	102	82	90
15	COC(=O)c1ccccc1NC(=O)COC(=O)c1ccccc1F	2	/	94	92
16	CCOC(=O)c1cnc2c(ccc3ccccc32)c1Nc1ccc(OCC)cc1	-26	105	103	92
17	COc1ccc(C2C(C(=O)Nc3cccc(C(F)(F)F)c3)=C(C)NC3=C2C(=O)CC(C)(C)C3)cc1 (stereo unspecified)	-5	104	/	/
18	CN1CCN(c2ccccc2NC(=O)c2cc3ccccc3o2)CC1	-8	103	94	85
19	O=C(COc1ccc(-c2ccccc2)cc1)N1CCN(c2ccccc2)CC1	-10	99	114	95
20	Cc1c(Cl)ccc2sc(N3CCN(C(=O)C(C)C)CC3)nc12	/	96	124	78
21	Cc1nnc(SCC(=O)NCc2ccccc2Cl)c2nn(-c3ccccc3)c(C)c12	/	108	108	99
22	Cc1ccc(NC(=O)CSc2ncn[nH]2)cc1C	/	104	106	86
23	CC(=O)n1nc(C)cc1-c1ccccc1	-8	/	101	94
24	Cc1cc(C)c(C#N)c(SCC(=O)NC(C)C23CC4CC(CC(C4)C2)C3)n1 (stereo unspecified)	0	105	/	/
25	O=C(CSc1nnnn1-c1ccc(O)cc1)NC(=O)NC12CC3CC(CC(C3)C1)C2	-15	/	91	96
26	Cc1cc(C)cc(Oc2coc3cc(OC(=O)C4CCCCC4)ccc3c2=O)c1	/	104	107	88
27	O=C(CCCc1nc(-c2ccccc2)no1)NCc1cccnc1	-5	104	93	85
28	CSc1nnc(COc2ccc(Br)cc2)n1Cc1ccccc1	-30	103	86	98
29	CC1(C(=O)NC2CCCC2)Cn2c(cc3ccccc32)C(=O)N1Cc1ccccn1 (stereo unspecified)	-9	104	/	/
30	Cc1cc(C)n(CC(O)CN2C(=O)NC(C)(C)C2=O)n1 (stereo unspecified)	/	100	112	89
31	COC(=O)CNC(=O)c1cccnc1Sc1ccc(C)cc1	-18	105	101	88
32	COc1cccc(C=Nc2ccc3c(c2)ncn3C)c1OC	-32	105	96	85
33	CC1(C)CC(=O)C(=CN2CCN(C(=O)c3ccco3)CC2)C(=O)C1	-12	101	103	85
34	Cc1[nH]c2ccccc2c1C(=O)CSc1cccc[n+]1[O-]	-22	/	100	82
35	CCOc1ccccc1NC(=O)CSc1ncc(S(=O)(=O)c2ccc(C)c(C)c2)c(N)n1	/	110	112	98
36	FC(F)(F)c1cccc(CSc2ncn[nH]2)c1	-13	99	/	/
37	CCN(C(=O)CSc1nnc(CSc2nc3ccccc3s2)n1C)C1CCCCC1	-30	/	95	100
38	O=C(O)C1CC(O)CN1Cc1ccccc1 (stereo unspecified)	-7	/	92	89
39	CN(C)C(=O)NC1CCS(=O)(=O)C1 (stereo unspecified)	-32	/	105	93
40	CCC(C)NC(=O)c1c(O)c2cccc3c2n(c1=O)CCC3 (stereo unspecified)	-8	98	93	93
41	Cc1cccc(-c2cc(Nc3cccc(C(=O)NC(C)C)c3)ncn2)c1	-29	102	/	/
42	Cc1ccc2nc(CCC(=O)N3CCCCCC3)[nH]c2c1	-2	109	86	94
43	Cc1[nH]c(C(=O)N2CCCC(C(=O)NC3CCCCC3)C2)c(C)c1C(=O)OC(C)C (stereo unspecified)	-34	98	/	/
44	CCn1c(=O)cc(SCC(=O)NCc2ccccc2OC)c2ccccc21	-11	102	111	87
45	NC(=O)CSc1nc2nc[nH]c2c(=O)[nH]1	-6	99	/	/
46	O=C(NCCC1=CCCCC1)c1cc2cc3ccc(Cl)cc3nc2o1	/	105	85	85
47	CCN(CC)C(=S)NC(=O)Cc1ccccc1	1	99	101	97
48	CC(C)NC(=S)NCc1cccc(Cl)c1	-2	/	94	85
49	CC(=O)N1SC(N)=NC1c1ccccc1 (stereo unspecified)	8	107	79	94
50	NC(=O)c1cc2cc(Cl)ccc2oc1=Nc1cc(C(F)(F)F)ccc1Cl	-61	97	/	/
51	CCCCc1c(C)nc(SCC(=O)O)[nH]c1=O	/	100	112	93
52	COc1ccccc1CCNC(=O)C1(c2cccs2)CCOCC1	/	98	122	84
53	O=C(O)COCC(=O)Nc1ccc2c(c1)C(=O)OC2	-19	101	96	87
54	O=C(CCc1nnc2c(=O)n(-c3cccc(F)c3)ccn12)NCCC1=CCCCC1	-27	105	104	90
55	CCOC(=O)C1CCN(C(=O)C2CCN(S(=O)(=O)c3c(C)noc3/C=C/c3ccc(C)cc3)CC2)CC1	/	103	124	112
56	Cc1ccc(NC(=O)C2=Cc3cc(C)ccc3OC=C2)c(C)c1	-13	99	/	/

The list continues.
No.	canonical_smiles	HCMV UL50-53 inh	GIV Gai3 FP	Sa growth 42C	Sa growth 42C second temp
57	CC(=O)Nc1ccc(-c2nc3ccccc3[nH]2)cc1	-17	100	120	81
58	Cc1cnc(C(=O)OCC(=O)c2ccc3c(c2)CCCC3)cn1	3	/	112	100
59	CC(C)C(=O)N1N=C(c2ccco2)CC1c1cn(-c2ccccc2)nc1-c1ccccc1 (stereo unspecified)	-4	110	104	92
60	CC(C)C(NC(=O)c1ccc(F)cc1)C(=O)N1CCN(Cc2ccccc2)CC1 (stereo unspecified)	3	/	109	105
61	Cc1cc(Cl)c(C(N)=O)c(C)n1	-2	/	101	91
62	O=C1C(CO)NC(=S)N1c1ccccc1 (stereo unspecified)	-3	106	83	97
63	CCOC(=O)CSCCOc1ccc(/C=C2/C(=O)NC(=O)N(c3ccc(C)cc3)C2=O)cc1OC	-15	104	/	/
64	Cn1ncc2c(=O)sc(NC(=O)c3ccccc3)nc21	-14	95	106	82
65	CCOC(=O)c1ccccc1NC(=O)CSc1nc2c(c(=O)n1CCOC)SCC2	-28	96	/	/
66	S=C(Nc1cccc(Cl)c1)N1CCCN(Cc2ccccc2Cl)C1	/	105	71	41
67	COc1cc(CN(C)C(C)C(=O)NC2CCCCC2)ccc1OC(F)F (stereo unspecified)	-20	/	88	93
68	CCOC(=O)c1cnc(Nc2ccccc2)nc1C(F)(F)F	-19	98	89	78
69	Cc1ccc(C(=O)Oc2c(CN3CCN(C)CC3)cc(Cl)c3cccnc23)cc1	-27	/	115	92
70	COc1cc(C(=O)Nc2cccc(C#N)c2)ccc1OC(F)F	-42	/	66	88
71	CCN(CC)CCN(C(=O)c1ccco1)c1nc2ccc(F)cc2s1	/	102	102	87
72	Cc1cc(C(F)(F)F)n2nc(-c3ccc(Br)cc3)cc2n1	-28	104	87	82
73	COc1cc(/C=C2/C(=O)Nc3cc(Cl)ccc32)cc(OC)c1O	-27	/	93	78
74	CCOC(=O)Cc1c(C(=O)OCC)c(C)cn1C	-9	101	92	88
75	CC(C)NC(=O)CSc1nnc(-c2cc3ccccc3n2C)o1	-30	98	/	/
76	Cc1ccc(NC2SC(=O)NC2=O)cc1Cl (stereo unspecified)	/	98	113	83
77	CCOC(=O)NNC(=O)C1CCC(C)CC1 (stereo unspecified)	2	101	89	98
78	COC(=O)CC[C@@H](C)[C@H]1CC[C@H]2[C@@H]3CC[C@@H]4C[C@H](O)CC[C@]4(C)[C@H]3C[C@H](O)[C@]12C	-16	/	30	52
79	CCN(c1ccccc1)S(=O)(=O)c1ccc2[nH]c(=O)cc(C)c2c1	-35	102	95	70
80	CSc1sc(-c2ccn[nH]2)c(-c2ccco2)c1C#N	-43	101	113	71
81	Cc1ccc(NC(=O)Nc2ccc3c(c2)N(C)C(=O)CS3)cc1	/	106	113	71
82	Cc1cccn2c(=O)cc(CN3CCC(C(=O)N4CCOCC4)CC3)nc12	-32	/	98	88
83	CCOC(=O)c1ccc(NC(=O)N2CCCN(c3ccc(=O)n(-c4ccc(F)cc4)n3)CC2)cc1	-52	104	/	/
84	CCCNC(=O)Nc1ccc(I)cn1	-4	102	101	101
85	C=CCN(CC=C)C(=O)c1cc(-c2ccc(OC)cc2)nc2ccccc12	-13	105	/	/
86	O=C(COc1ccc2ccccc2c1)c1ccc(O)cc1O	-14	/	93	93
87	COc1cccc(-n2nnc3c(=O)n(C/C=C/c4ccccc4)cnc32)c1	-2	99	83	83
88	O=C(c1ccccc1Nc1ccc(SC(F)F)cc1)N1CCCCC1	-4	/	80	74

Sorted by length of the SMILES (largest number first): part of the list above
No.	canonical_smiles	HCMV UL50-53 inh	GIV Gai3 FP	Sa growth 42C	Sa growth 42C second temp
78	COC(=O)CC[C@@H](C)[C@H]1CC[C@H]2[C@@H]3CC[C@@H]4C[C@H](O)CC[C@]4(C)[C@H]3C[C@H](O)[C@]12C	-16	/	30	52
83	CCOC(=O)c1ccc(NC(=O)N2CCCN(c3ccc(=O)n(-c4ccc(F)cc4)n3)CC2)cc1	-52	104	/	/
79	CCN(c1ccccc1)S(=O)(=O)c1ccc2[nH]c(=O)cc(C)c2c1	-35	102	95	70
82	Cc1cccn2c(=O)cc(CN3CCC(C(=O)N4CCOCC4)CC3)nc12	-32	/	98	88
73	COc1cc(/C=C2/C(=O)Nc3cc(Cl)ccc32)cc(OC)c1O	-27	/	93	78
81	Cc1ccc(NC(=O)Nc2ccc3c(c2)N(C)C(=O)CS3)cc1	/	106	113	71
71	CCN(CC)CCN(C(=O)c1ccco1)c1nc2ccc(F)cc2s1	/	102	102	87
72	Cc1cc(C(F)(F)F)n2nc(-c3ccc(Br)cc3)cc2n1	-28	104	87	82
88	O=C(c1ccccc1Nc1ccc(SC(F)F)cc1)N1CCCCC1	-4	/	80	74
75	CC(C)NC(=O)CSc1nnc(-c2cc3ccccc3n2C)o1	-30	98	/	/
80	CSc1sc(-c2ccn[nH]2)c(-c2ccco2)c1C#N	-43	101	113	71
86	O=C(COc1ccc2ccccc2c1)c1ccc(O)cc1O	-14	/	93	93
74	CCOC(=O)Cc1c(C(=O)OCC)c(C)cn1C	-9	101	92	88
76	Cc1ccc(NC2SC(=O)NC2=O)cc1Cl (stereo unspecified)	/	98	113	83
77	CCOC(=O)NNC(=O)C1CCC(C)CC1 (stereo unspecified)	2	101	89	98
84	CCCNC(=O)Nc1ccc(I)cn1	-4	102	101	101

(continued)
No.	canonical_smiles	HCMV UL50-53 inh	GIV Gai3 FP	Sa growth 42C	Sa growth 42C second temp
89	Cn1cnnc1SCc1nc2ccccc2c(=O)n1CC#N	-24	/	75	87
90	CC1CN(C(=O)C(C)Sc2nnnn2C)CC(C)O1 (stereo unspecified)	5	/	99	89
91	CC(=O)Nc1ccc(NC(=O)c2csnn2)cc1	-33	101	89	65
92	Cc1nn(-c2cc(N3CCCC3)ncn2)c(C)c1CCC(=O)Nc1ccc(Br)cc1	9	99	/	/
93	CCOC(=O)c1ccc(-n2c(C)cc(/C=C3\C(=O)N(c4ccccc4)N=C3C)c2C)cc1	-25	103	/	/
94	COc1ccc(-n2ncc(C(=O)N3CCc4ccccc4C3)c2C2CCN(C(=O)OC(C)(C)C)CC2)cc1	/	112	87	96
95	CCc1nnc(SCc2nc(-c3ccccc3F)oc2C)c2cc3oc(C)cc3n12	-58	105	92	82
96	Cc1ccc(Cl)cc1N1CCN(CCNC(=O)CCc2nnc3n(CC(C)C)c(=O)c4ccccc4n23)CC1	-16	107	104	92
97	CN(c1ccccc1C(=O)N1CCN(Cc2ccc3c(c2)OCO3)CC1)S(C)(=O)=O	9	101	106	95
98	COc1ccc(OC)c(CCNc2ccc3nncn3n2)c1	3	102	99	88
99	COc1ccccc1N(CC(=O)NCCSCc1cccc(Cl)c1)S(C)(=O)=O	-33	102	89	78
100	CCCCS(=O)C1CCCCC1OC(=O)c1ccccc1 (stereo unspecified)	-9	/	99	85
101	CN(C(=O)CSc1nnc(N)s1)c1ccccc1	-18	99	101	91
102	O=C1c2ccccc2C(=O)N1CCCSc1nccn1-c1cc(Cl)ccc1Cl	-18	101	96	73
